# StopGo FLuc – Primary qHTS Assay for Foot and Mouth Disease Virus Antivirals against NCGC Sytravon and CBC Compound Libraries: Firefly Luciferase Signal. HEK cells with a luciferase reporter of 2A StopGo recoding. Potency, µM (series often up to 57.5 µM), for the others: at the top dose signal change, negative = less light. 0.23% of 120,000 active. AID 1745856, 2022; active = well fitted falling curve with a large enough effect; inconclusive = small, poorly fitted or top-dose-only effect; inactive = no such curve, though single readings can be large or run the other way; also: nearly all actives have a fitted effect of over 60% in size; overnight with compound
# StopGo RLuc – Primary qHTS Assay for Foot and Mouth Disease Virus Antivirals against NCGC Sytravon and CBC Compound Libraries: Renilla Luciferase Signal; HEK cells with a luciferase reporter of 2A StopGo recoding; Potency, µM (titrated, usually from 57.5 µM), inactives show at the top dose signal change, negative = less light; 0.32% of 120,000 active; AID 1745857, 2022; active means well fitted falling curve with a large enough effect; inconclusive means small, poorly fitted or top-dose-only effect; inactive means no such curve, though single readings can be large or run the other way; also: nearly all actives have a fitted effect of over 55% in size; overnight with compound
# * = called active by the depositor; ? = inconclusive; & = joins results of further samples; [ ] = remark or other dose. % is scaled to controls: 0 for no effect and ±100 for the full control effect; potency is read from the fitted curve at half-maximal effect.
1. COc1ccc(Cl)cc1Nc1nc(N)c(C(=O)c2ccc(C)cc2C)s1
2. Cc1ccc(/C=N/N=C(c2ccccc2)c2ccccc2)o1
3. O=C(CCNc1nc(Cl)nc2nc[nH]c12)NCCc1c[nH]c2ccccc12
4. O=C(CCc1ncc(-c2ccccc2)o1)Nc1nc2ccccc2s1
5. COc1ccc(NC(=O)c2cc(=O)c3ccccc3o2)cc1
6. CC(C)Cn1c(=O)c2ccccc2n2c(CCC(=O)N3CCN(c4ccccc4F)CC3)nnc12
7. Cc1oc2ncnc(N3CCCCC3)c2c1C(=O)NCC1CCN(Cc2ccccc2F)CC1
8. COc1cccc(-c2nnc3sc(CN4CCCCC4)cn23)c1
compound no.,1,2,3,4,5,6,7,8
StopGo FLuc,-2.1%,16.2%,13.4%,32.7%,174.5%[activator],12.4%,-5.1%,60.4%[activator]
StopGo RLuc,-25.1%,-6.0%,5.8%,7.1%,-8.8%,17.2%,2.8%,51.8%[activator]

9. COC(=O)C1=C(C)OC(=O)C1(NC(=O)c1ccccc1)C(F)(F)F (stereo not drawn)
10. Cc1nn(-c2ccccc2)c(OC(=O)c2ccc(Br)cc2)c1S(=O)(=O)c1ccccc1
11. Cc1cccc(NC(=O)c2ccc[n+]([O-])c2)n1
12. COc1cc2c(cc1OC)[C@@H]1CC(=O)[C@@H](CC(C)C)CN1CC2
13. CCOc1ccccc1NC(=O)Cn1c(=O)n(-c2cccc(C)c2)c(=O)c2c1c1cc(OC)ccc1n2C
14. CN(C)C(=O)CN1CCN(C(C(=O)O)c2c[nH]c3ccc(OCc4ccccc4)cc23)CC1 (stereo not drawn)
15. CC(C)OCCCNC(=O)Cn1c(-c2cccs2)cc2cc(F)ccc21
16. COc1ccc(-c2cnc(N)nc2-c2ccc(OCc3ccccc3F)cc2O)cc1OC
compound no.,9,10,11,12,13,14,15,16
StopGo FLuc,10.2%,-7.0%,11.7%,-13.9%,-10.7%,11.8%,12.8%,1.5%
StopGo RLuc,2.3%,2.3%,-0.5%,-2.3%,7.1%,-3.4%,23.3%,25.2%

# Reformatted bar-delimited: entries from further up
entry | SMILES | StopGo FLuc | StopGo RLuc
4 | O=C(CCc1ncc(-c2ccccc2)o1)Nc1nc2ccccc2s1 | 32.7% | 7.1%
5 | COc1ccc(NC(=O)c2cc(=O)c3ccccc3o2)cc1 | 174.5%[activator] | -8.8%
6 | CC(C)Cn1c(=O)c2ccccc2n2c(CCC(=O)N3CCN(c4ccccc4F)CC3)nnc12 | 12.4% | 17.2%
7 | Cc1oc2ncnc(N3CCCCC3)c2c1C(=O)NCC1CCN(Cc2ccccc2F)CC1 | -5.1% | 2.8%
8 | COc1cccc(-c2nnc3sc(CN4CCCCC4)cn23)c1 | 60.4%[activator] | 51.8%[activator]

# (continued)
17. COc1ccc(CN(C(=O)c2ccc(OCC(C)C)cc2)C2CCS(=O)(=O)C2)cc1 (stereo not drawn)
18. Cc1sc2nc(CN3CCCCC3)nc(Sc3nnnn3C)c2c1C
19. O=C(Nc1ccccc1)c1cc(=O)[nH]c2ccccc12
20. COc1ccc(OC)c(C2C3=C(CCCC3=O)Nc3nc(SCc4ccccc4F)[nH]c(=O)c32)c1 (stereo not drawn)
21. Cc1nc(-c2ccc(CNC(=O)c3ccc4nc[nH]c4c3)cc2)cs1
22. CCCCOC(=O)c1ccc(NC(=O)c2cc3c(=O)n4cccc(C)c4nc3n2C)cc1
23. CN(Cc1ccc(C(C)(C)C)cc1)Cc1cccc2ccccc12
24. O=C(O)c1ccccc1-c1cc2ccccc2oc1=O
compound no.,17,18,19,20,21,22,23,24
StopGo FLuc,-7.9%,12.4%,12.5%,-3.0%,?,1.2%,-8.9%,1.4%
StopGo RLuc,-6.2%,2.6%,5.4%,28.4%,?,7.7%,-9.1%,4.8%

25. CCc1nn2c(=O)c(S(=O)(=O)Nc3cccc(F)c3)c(C)nc2s1
26. O=C(CC12CC3CC(CC(C3)C1)C2)Nc1ccc(-c2nc3ncccc3o2)cc1
27. CCOc1ccc(CNC(=O)Cn2ccc3cc(S(=O)(=O)N4CCCCCC4)ccc32)cc1
28. Cc1nc(Cn2cc(S(=O)(=O)N(C)C)ccc2=O)no1
29. CCNC(=O)N(C)Cc1nc(-c2ccc(OC)cc2)no1
30. O=C(c1ccc(Br)s1)N(Cc1cccnc1)c1nc2ccc(F)cc2s1
31. CCOCCCC(=O)N(C)Cc1cccc(OC)c1
32. O=C(Cc1scnc1-c1cccs1)NCc1ccccc1Cl
compound no.,25,26,27,28,29,30,31,32
StopGo FLuc,-2.0%,27.7%,73.9%[activator],0.7%,27.8%,31.1%&-12.5%[activator],113.9%[activator],38.2%[activator]
StopGo RLuc,27.4%,11.0%,80.0%[activator],-10.4%,-7.4%,-0.1%&-9.0%,15.9%,11.0%

33. Cc1cc(C)c2c(n1)oc1c(=O)n(CC(=O)N3CCOCC3)cnc12
34. O=Cc1ccc(OCc2ccc(Br)cc2)c(Cl)c1
35. O=C(COc1ccccc1Cl)Nc1nnc(S(=O)(=O)N2CCCCCC2)s1
36. Cc1cccc(C(=O)Nc2ccc3oc(-c4cccc5c(Br)cccc45)nc3c2)c1
37. CCOC(=O)c1ccn(-c2nc(-c3cccc(OC)c3)cc(C(F)(F)F)n2)n1
38. CCOc1ccc(-c2c(C)nn3c(C)c(C(=O)Nc4ccccc4C(=O)OC)cnc23)cc1OCC
39. CCc1cccc(C)c1NC(=O)Cn1nc(C)n2cccc2c1=O
40. COc1ccc(NC(=O)C2CCCN(S(=O)(=O)c3ccc4[nH]c(=O)ccc4c3)C2)cc1Cl (stereo not drawn)
compound no.,33,34,35,36,37,38,39,40
StopGo FLuc,-5.1%,185.2%[activator],-12.9%,-12.4%,-11.5%,46.0%[activator],0.0%,5.9%
StopGo RLuc,-5.5%,20.2%,-14.7%,-11.0%,-14.0%,53.1%[activator],-12.9%,-5.8%

# Complete entries, quoted from the list:
# CCOc1ccc(-c2c(C)nn3c(C)c(C(=O)Nc4ccccc4C(=O)OC)cnc23)cc1OCC reads StopGo FLuc: 46.0%[activator]; StopGo RLuc: 53.1%[activator]
# Cc1cccc(C(=O)Nc2ccc3oc(-c4cccc5c(Br)cccc45)nc3c2)c1 reads StopGo FLuc: -12.4%; StopGo RLuc: -11.0%

# (next part)
41. Cc1cc(C)cc(NC(=O)C2CCC(CNS(=O)(=O)c3ccc4c(c3)C(C)(C)C(=O)N4C)CC2)c1 (stereo not drawn)
42. Fc1cc(Br)ccc1NC(=S)NCc1cccs1
43. COc1ccc(C2CC(=O)N(Cc3ccccc3)c3c2c(C)nn3-c2nc(C)cc(C)n2)c(OC)c1 (stereo not drawn)
44. CC(=O)c1ccc(NC(=O)CSc2nc(=O)n(Cc3ccccn3)c3c2CCC3)cc1
45. CC(C)N(Cc1ccccc1)C(=O)COC(=O)c1cc(Br)ccc1Cl
46. Cc1ccc(Nc2c(-c3cccc(Cl)c3)nc3cccc(C)n23)cc1
47. CC(NC(=O)CSc1nnc2n1CCCCC2)c1ccc2c(c1)CCCC2 (stereo not drawn)
48. Cc1ccc(C)c(S(=O)(=O)c2nnn3c2nc(Nc2ccc(C)c(C)c2)c2sccc23)c1
compound no.,41,42,43,44,45,46,47,48
StopGo FLuc,?,76.5%[activator],5.1%,-0.4%,-1.1%,41.5%[activator],-8.8%,-26.2%
StopGo RLuc,?,190.2%[activator],25.8%,-15.4%,12.3%,124.9%[activator],-12.6%,12.1%

49. Cc1cc(C)c(NC(=O)C(C)n2nnc3sc(-c4ccccc4)cc3c2=O)c(C)c1 (stereo not drawn)
50. CC(C)NC(=O)c1ccccc1NC(=O)c1nsc2ccccc12
51. O=C(COC(=O)Cc1n[nH]c(=O)c2ccccc12)NC(=O)NC1CCCC1
52. COc1cc(C2SCCS2)ccc1OC(=O)c1ccc2c(c1)NC(=O)CS2
53. CC(Cl)C(=O)Nc1ccccc1C(N)=O (stereo not drawn)
54. Cc1ccc(NC(=O)CSc2nc3ccccc3n2CC(=O)N(C)C2CCCCC2)cc1C
55. CCCCc1nn2c(=O)cc(COC(=O)COc3ccc(C)cc3)nc2s1
56. CCOC(=O)CNC(=O)C(=O)NCC(=O)OCC
compound no.,49,50,51,52,53,54,55,56
StopGo FLuc,-12.0%,12.9%,10.7%,12.6%,14.2%,33.1%[activator],-3.7%,-1.7%
StopGo RLuc,-9.1%,-0.4%,-4.8%,7.5%,18.5%,61.0%[activator],0.1%,0.1%

57. O=C(Nc1oc2ccc(Cl)cc2c(=O)c1-c1ccccc1)c1cccs1
58. CCOC(=O)N1CCc2c(sc3c2c(=O)n(Cc2ccccc2)c(=O)n3CC(=O)Nc2ccc(C)cc2C)C1
59. CCCCC(=O)N1CCN(c2nc(C)c3c(c2C#N)CCCC3)CC1
60. Cc1cccc(N2C(=O)CSC23C(=O)N(CC(=O)NCCc2ccccc2)c2ccccc23)c1 (stereo not drawn)
61. Cc1ccc(C(=O)c2oc3ccccc3c2NC(=O)COc2ccc(Cl)c(C)c2)cc1
62. COc1ccc(NCc2cccn2-c2nnc(N3CCOCC3)s2)cc1OC
63. CCOC(=O)C(N)c1ccc(Cl)cc1 (stereo not drawn)
64. CCc1ccccc1-n1c(C)nc2cc(C(=O)NCCc3ccc(Cl)cc3)ccc21
compound no.,57,58,59,60,61,62,63,64
StopGo FLuc,17.9%,8.3%,-0.3%,0.0%,-7.8%,0.0%,16.0%,6.4%
StopGo RLuc,-8.9%,-2.2%,-6.6%,0.0%,-4.7%,0.2%,0.0%,11.6%

65. COc1ccc(CC(=O)Nc2ccccc2-c2ccccc2)cc1
66. CCOc1ccc(CN(C(=O)c2cc(=O)c3ccc(C)c(C)c3o2)C2CCS(=O)(=O)C2)cc1 (stereo not drawn)
67. CCOc1ccc(NC(=O)CSCc2cc(=O)n3cccc(C)c3n2)cc1
68. CCOc1ccc(-n2nc(C(=O)NCCCN(CC)Cc3ccccc3)c3ccccc3c2=O)cc1
69. CSc1ccccc1C(=O)Nc1cccc(C)c1C
70. Cc1ccnc(NC(=O)c2cc(-c3ccc(C)o3)nc3ccccc23)c1
71. N#Cc1nc(COc2ccc(Cl)cc2)oc1NCc1ccncc1
72. O=C(NCCCCCO)C1CCN(c2nc(Cl)nc3nc[nH]c23)CC1
compound no.,65,66,67,68,69,70,71,72
StopGo FLuc,7.5%,-18.8%,8.4%,-13.2%,5.4%,50.6%[activator],0.0%,3.9%
StopGo RLuc,12.1%,-7.5%,1.8%,-6.3%,14.9%,-0.2%,8.0%,-6.0%

73. CCOC(=O)c1cc(NC(=O)c2ccc(OC)cc2)c(=O)n2c1oc1ccc(Cl)cc12
74. CCc1ccc(Nc2sc(C(=O)c3ccccc3)c(N)c2S(C)(=O)=O)cc1
75. Cc1ccccc1NC(=O)C1CCn2c(C(=O)c3ccccc3)ccc21 (stereo not drawn)
76. N#Cc1nc(-c2ccc(S(=O)(=O)N3CCCC3)cc2)oc1NCCc1ccccc1
77. CCOC(=O)C1=C(N)OC2=C(C(=O)CCC2)C1c1ccc(Cl)cc1 (stereo not drawn)
78. O=C(C1CCCCC1)N(Cc1cccnc1)c1nc2ccc(F)cc2s1
79. Cc1cc2oc(C(=O)Nc3c(C(=O)Nc4ccccc4)oc4ccccc34)cc(=O)c2cc1C
80. COc1ccc(CNC(=O)c2ccc3c(=O)n(-c4cc(OC)ccc4OC)cnc3c2)cc1
compound no.,73,74,75,76,77,78,79,80
StopGo FLuc,-20.5%,-1.4%,0.0%,3.2%,3.4%,3.9%,-10.7%,4.5%
StopGo RLuc,-10.4%,0.4%,6.7%,2.2%,-1.0%,17.1%,14.5%,12.0%

81. Cc1cc(=O)oc2c(C)c(OCC(=O)NCCCn3ccnc3)ccc12
82. CC(=O)c1ccc(NC(=O)c2cc3sccc3n2Cc2ccc(Cl)cc2)cc1
83. O=C(COC(=O)c1cc(-c2ccccc2)nc2c(Cl)cccc12)c1ccc(F)cc1
84. Cc1cccc(CN2C(=O)c3ccccc3S(=O)(=O)c3ccc(C(=O)NC4CCCCC4)cc32)c1
85. COc1ccc(NC(=O)Cn2c(=O)n(-c3cccc(C)c3)c(=O)c3c2c2cc(C)ccc2n3C)cc1OC
compound no.,81,82,83,84,85
StopGo FLuc,-8.5%,43.5%[activator],-14.3%,-8.0%,-6.5%
StopGo RLuc,-6.8%,-3.7%,-18.5%,41.7%[activator],6.0%

# Source: PubChem BioAssay
